Bioassay records deposited in PubChem by several laboratories.
GALR2 ag: GALR2 (human) receptor agonism. O43603. GALR2-expressing cells, agonist activation read-out. activation, %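 (tested at 5 µM)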. actives 0.48% (n = 140,000). AID 803;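 active means above mean plus 3 SD of all compounds, about 5% in these data, not always enough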;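 further: 0% = vehicle buffer wells and 100% = reference agonist at full effect; tested in CHO reporter cells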
HSV augment: increases HSV replication in cells | actives 0.005% (n = 220,000) | maximum fold increase | HSV replication augmentation in cells, fold increase;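 active means peak rise of 1.5-fold or more in the series; inconclusive means self-fluorescent or not available for retest; tested in PC3 cells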;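 further: first round at 10 µM; read as green reporter fluorescence; hits show the peak of a series up to 25 µM; 1 = signal of infected wells without compound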
RGS16-Gao: modulates binding between human RGS16 and Galphao. bead-based flow cytometry RGS16-Galphao binding, fluorescence; actives lie on both sides. binding response (% of control), % at 10 µM. actives 0.38% (n = 220,000). AID 1441;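 active means below 25% or above 175%, edge rows of some plates excepted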;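 further: Galphao activated by GDP with aluminum fluoride before binding; 100% = wells without compound and 0% = beads without RGS; some results beyond the cut were filed as inactive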
Insulin prom inh: TRM-6 insulin promoter activity inhibition | AID 1273 | inhibition, % at 2 µM | TRM-6 cells (human fetal islet line), insulin promoter-eGFP reporter, imaging; reporter expression induced with tamoxifen | actives 0.9% (n = 130,000);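 active means inhibition above the mean plus 3 SD, with well images judged a real hit on visual review, cut at about 60% in these data, passing the limit was not always enough; inconclusive means inhibition over the cutoff but images rejected on review; inactive means inhibition not above the cutoff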
PKD1 inh: blocks activity of human protein kinase D1 | actives 0.056% (n = 200,000) | Q15139 | AID 797 | inhibition, %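 (about 10 µM by stock and volumes)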 | PKD1 kinase fluorescence polarization assay;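 active means inhibition of 50% or more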;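 further: controls were vehicle for no effect and a reference inhibitor for full effect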
Target sequence (Q15139 whole entry, looked up): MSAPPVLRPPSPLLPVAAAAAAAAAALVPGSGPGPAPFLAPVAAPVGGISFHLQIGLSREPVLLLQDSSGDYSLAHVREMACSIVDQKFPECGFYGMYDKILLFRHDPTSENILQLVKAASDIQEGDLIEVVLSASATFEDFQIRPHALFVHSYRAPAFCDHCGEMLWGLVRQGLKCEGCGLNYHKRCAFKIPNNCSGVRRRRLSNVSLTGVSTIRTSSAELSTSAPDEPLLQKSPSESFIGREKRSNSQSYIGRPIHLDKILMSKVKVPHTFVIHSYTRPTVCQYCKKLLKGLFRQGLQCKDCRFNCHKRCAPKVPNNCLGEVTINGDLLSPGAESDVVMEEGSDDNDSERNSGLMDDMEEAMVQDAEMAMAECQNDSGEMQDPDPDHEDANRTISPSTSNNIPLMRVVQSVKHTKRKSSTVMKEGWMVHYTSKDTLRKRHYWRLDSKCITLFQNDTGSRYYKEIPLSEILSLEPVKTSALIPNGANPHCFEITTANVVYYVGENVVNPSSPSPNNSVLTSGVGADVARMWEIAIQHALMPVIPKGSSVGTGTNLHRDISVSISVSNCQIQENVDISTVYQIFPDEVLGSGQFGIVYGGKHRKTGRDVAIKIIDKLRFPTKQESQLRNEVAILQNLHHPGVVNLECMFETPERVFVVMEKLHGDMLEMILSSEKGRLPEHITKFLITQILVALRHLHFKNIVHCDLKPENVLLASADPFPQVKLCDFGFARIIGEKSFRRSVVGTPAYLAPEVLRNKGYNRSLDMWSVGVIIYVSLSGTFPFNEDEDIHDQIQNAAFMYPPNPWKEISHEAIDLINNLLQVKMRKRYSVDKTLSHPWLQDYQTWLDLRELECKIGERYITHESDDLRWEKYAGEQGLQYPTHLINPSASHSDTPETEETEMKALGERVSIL
Insulin prom inh cell count: second read-out of Insulin prom inh, no call of its own (marks repeat the call); normalized cell count, %; measured here: cell count, toxicity; reference of the scale not given here;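 cells exposed to compound for 48 h; stained nuclei by imaging scaled within each plate; lower means fewer cells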
HSV augment primary fold: recorded beside HSV augment, whose call it bears; fold increase; compound at 10 µM; measured here: primary screen fold increase 10 uM; tested in PC3 cells;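 GFP signal in the first replicate; 1 = infected wells without compound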
The depositor's hits bear a star; i = inactive; ? = inconclusive; nt = not tested or not shown.

SMILES | GALR2 ag | HSV augment | HSV augment primary fold | RGS16-Gao | Insulin prom inh | Insulin prom inh cell count | PKD1 inh
O=C(c1ccc(S(=O)(=O)N2CCCC2)cc1)N1CCCc2ccccc21 | 0.9 | i | 0.96 | 107 | nt | nt | -6
O=C(OCC(=O)N1CCCCCC1)c1ccc(S(=O)(=O)N2CCOCC2)cc1 | nt | i | 0.91 | 95 | -60 | 183 | 1
O=C(Nc1c(Cl)cccc1Cl)C1CCC1 | -0.7 | i | 1.1 | 92 | nt | nt | -7
Cc1nc(NC(=O)CC(C)C)sc1-c1csc(Nc2ccc(Cl)cc2)n1 | -2.8 | i | 0.74 | 102 | -3 | 189 | -7
CC(C)(C)NS(=O)(=O)c1ccc2nc(NC(=O)Cc3cccs3)sc2c1 | 0.4 | i | 0.66 | 86 | -17 | 116 | -3
COc1cc2c(cc1OC)C(C)=NC1(CCCCC1)C2 | nt | i | 0.75 | 99 | nt | nt | nt
Cn1ccnc1C1CCCCN1Cc1nc(-c2ccc3c(c2)OCO3)no1 (centres undefined) | nt | i | 1 | 88 | nt | nt | 4
CN(CC(=O)Nc1ccc(F)cc1)C(=O)COc1ccc([N+](=O)[O-])cc1Cl | nt | nt | nt | 112 | -79 | 96 | 4
Cc1cccc(N=C(N2CCOCC2)P(=O)(N2CCOCC2)N2CCOCC2)c1 | -1.2 | i | 1.1 | 103 | -14 | 85 | -6
COc1cc(-c2nnc(-c3ccc(S(=O)(=O)c4ccccc4)cc3)o2)cc(OC)c1OC | 1.1 | i | 0.79 | 115 | -100 | 41 | -10
Cc1nnc(-c2ccccc2)c[n+]1[O-] | -2.9 | i | 0.95 | 114 | 42 | 95 | -8
Cc1cccc(NC(=O)CNc2cc(C)ccc2C)c1 | -2.1 | i | 1.1 | 103 | nt | nt | -9
Cc1ccc(CS(=O)(=O)c2ccccc2-c2nnc(-c3ccc(Cl)cc3)o2)cc1 | -3.0 | i | 0.68 | 100 | 3 | 93 | -5
Cc1cc(C)n2nc(C(=O)Nc3ccc(S(=O)(=O)N4CCCCC4)cc3)nc2n1 | -1.6 | i | 0.94 | 106 | -19 | 119 | -11
Cc1cc(CNC(=O)COc2cc(F)ccc2[N+](=O)[O-])c2ccccc2n1 | nt | i | 0.97 | 106 | 25 | 117 | -11
CC(C)(C)c1csc(NC(=O)Nc2ccccc2)n1 | nt | i | 0.88 | 110 | 0 | 145 | 1
CCn1c(C)nc2cc(C(=O)NNC(=O)Nc3ccc(Cl)c(Cl)c3)ccc21 | nt | i | 1 | 94 | nt | nt | -2
COc1ccc(CCNC(=S)NCCc2c[nH]c3ccccc23)cc1 | nt | i | 0.89 | 99 | nt | nt | 0
Cc1ccc(N(C(=O)Cn2nnc(-c3ccc(F)cc3)n2)C(CC(C)C)C(=O)NCC2CCCO2)cc1 (centres undefined) | -0.2 | i | 0.93 | 106 | -10 | 67 | 8
C/C(CC(=O)Nc1ccc(Cl)cc1Cl)=N\NC(=O)C(=O)NCCO | -0.3 | i | 1 | 57 | 0 | 25 | -5
O=C(Cn1nnc(-c2cccc(C(F)(F)F)c2)n1)NC1CCCC1 | -1.3 | i | 1.1 | 104 | nt | nt | -5
NC(=O)c1ccsc1NC(=O)c1ccc(S(=O)(=O)N2CCCCC2)cc1 | -2.0 | i | 0.71 | 88 | nt | nt | 4
O=C(CC(SCCO)c1ccc(F)cc1)c1ccco1 (centres undefined) | -1.4 | i | 1 | 108 | 23 | 110 | 1
CCC1=C(OC(=O)N(CC)CC)N2C(=O)OC(=NCC(=O)OC)[C@]2(Cc2ccccc2)[C@H]2C1=CC[C@H]1C(=O)NC(=O)[C@H]12 | nt | i | 0.83 | 105 | nt | nt | nt
CCOC(=O)N1CCN(C(=O)CSc2ccc3nnc(CCNC(=O)c4ccccc4)n3n2)CC1 | nt | i | 0.99 | 95 | nt | nt | -3
CC(=O)c1cc2c(C)c(C(=O)c3ccccc3)oc2cc1O | 0.8 | ? | nt | 108 | 0 | 138 | -6
Cc1nc2ccccc2n1CC(O)Cn1c2ccccc2c2ccccc21 (centres undefined) | 0.0 | i | 0.81 | 104 | nt | nt | -3
CCOc1cccc2cc(-c3nnc(NCc4ccco4)s3)c(=O)oc12 | 1.7 | i | 0.91 | 84 | nt | nt | 12
Cc1cccc(NC(=S)N2CCCCC2)c1 | 1.0 | i | 1.1 | 103 | 16 | 107 | -2
CCCCC(=O)NC(=S)NNC(=O)c1ccc(Cl)cc1Cl | nt | i | 1 | 97 | nt | nt | -4
COc1ccc(C(=O)N2CCC(C(=O)Nc3ccc4c(c3)OCCO4)CC2)cc1 | -2.5 | i | 0.97 | 110 | 3 | 86 | -3
CCCC[n+]1ccn(-c2nc3ccccc3nc2[N-]S(=O)(=O)c2ccccc2)c1 | 0.2 | i | 1 | 172 | -36 | 100 | 0
O=C(Nc1cccc(NC(=O)C2CC2)n1)C1CC1 | -0.6 | i | 0.95 | 98 | -18 | 134 | 3
CC(C)(C)NC(=O)NC(=O)COC(=O)c1cccc(NS(=O)(=O)c2ccc(F)c(F)c2)c1 | 0.5 | i | 0.98 | 92 | nt | nt | -2
O=C(Cn1cccc1)N1CCN(C(c2ccccc2)c2ccccc2)CC1 | -1.0 | i | 1.4 | 102 | -394 | 24 | -4
CCOc1ccc(S(=O)(=O)NC(C)C)cc1C(N)=O | nt | i | 1.1 | 101 | nt | nt | -5
COc1ccccc1-n1c(=O)oc2ccc(Cl)cc2c1=O | -3.2 | i | 1 | 102 | 14 | 68 | -10
Cc1ccc(Nc2nc(C)nc3c2oc2ccccc23)cc1 | nt | i | 0.88 | 98 | nt | nt | nt
O=C(CCSc1ccccn1)c1ccccc1 | nt | i | 0.72 | 87 | -22 | 77 | -6
O=C(O)CNc1nc(-c2ccccc2)nc2ccccc12 | -1.3 | i | 0.81 | 103 | -16 | 198 | -1

Sorted by number of heavy atoms (highest first): five of the compounds above.
SMILES | GALR2 ag | HSV augment | HSV augment primary fold | RGS16-Gao | Insulin prom inh | Insulin prom inh cell count | PKD1 inh
CC(C)(C)NC(=O)NC(=O)COC(=O)c1cccc(NS(=O)(=O)c2ccc(F)c(F)c2)c1 | 0.5 | i | 0.98 | 92 | nt | nt | -2
O=C(Cn1cccc1)N1CCN(C(c2ccccc2)c2ccccc2)CC1 | -1.0 | i | 1.4 | 102 | -394 | 24 | -4
CCCCC(=O)NC(=S)NNC(=O)c1ccc(Cl)cc1Cl | nt | i | 1 | 97 | nt | nt | -4
O=C(CC(SCCO)c1ccc(F)cc1)c1ccco1 (centres undefined) | -1.4 | i | 1 | 108 | 23 | 110 | 1
O=C(CCSc1ccccn1)c1ccccc1 | nt | i | 0.72 | 87 | -22 | 77 | -6

More compounds
SMILES | GALR2 ag | HSV augment | HSV augment primary fold | RGS16-Gao | Insulin prom inh | Insulin prom inh cell count | PKD1 inh
COC(=O)CC(=O)N1CCN(c2ccc(Cl)c(Cl)c2)CC1 | nt | i | 1 | 106 | nt | nt | 4
Cc1oc(-c2ccccc2Cl)nc1Cn1cccc1C1=NC(c2ccccc2)CO1 (centres undefined) | -1.4 | i | 0.89 | 97 | 21 | 128 | 3
CCCNC(=O)c1ccc(OC)cc1OC | -2.4 | i | 0.77 | 108 | 36 | 98 | 1
Cn1cc(C(=O)NCN2CCCCC2)c2ccccc21 | -2.8 | nt | nt | 94 | -36 | 120 | -3
COc1cccc(Nc2ncccc2C(=O)O)c1 | -1.4 | i | 1.1 | 104 | nt | nt | 7
CCOC(=O)N/N=C/C(Cl)=C/c1ccccc1 | nt | i | 0.97 | 109 | -27 | 96 | -11
CCOc1ccccc1NC(=O)c1cccc(S(=O)(=O)N(Cc2ccccc2)c2ccccc2OC)c1 | 0.6 | i | 0.97 | 102 | 13 | 75 | -5
CCOC(=O)c1cn(Cc2cccc(Cl)c2)nn1 | -2.1 | i | 1 | 102 | nt | nt | 1
CNC(=O)c1sc(-c2cccs2)nc1C | nt | i | 0.98 | 112 | -92 | 84 | 2
CCC(C)c1ccc(NC(=O)c2cnn3c(C(F)F)cc(C)nc23)cc1 (centres undefined) | nt | i | 1.1 | 98 | 12 | 94 | -5
C/C(=N\N=C1\NC(=O)CS1)c1cccs1 | nt | i | 0.93 | 104 | -27 | 99 | -4
FC(F)Oc1ccc(-c2csc(=Nc3cccnc3)n2CC2CCCO2)cc1 (centres undefined) | -3.0 | i | 0.83 | 94 | 7 | 113 | -3
O=C(Nc1nccs1)c1cn2ccccc2n1 | nt | i | 1.1 | 101 | nt | nt | nt
Cc1nc2ccccc2n1C(=O)c1ccccc1[N+](=O)[O-] | -0.4 | i | 1.1 | 104 | nt | nt | 5
Cc1ccc(S(=O)(=O)N2CCCCC2)cc1NC(=O)CSc1ncn[nH]1 | nt | i | 1 | 93 | nt | nt | 5
CCCCn1c(NC(=S)Nc2ccccc2)nc2ccccc21 | 0.1 | i | 0.68 | 103 | -19 | 190 | -3
O=C(NC(=S)Nc1ccc(Cc2ccncc2)cc1)c1ccccc1Cl | -1.2 | i | 0.92 | 100 | -29 | 140 | 3
O=C(N/N=C/c1cccc([N+](=O)[O-])c1)c1cccc2cc[nH]c12 | nt | i | 1 | 102 | 0 | 81 | -2
CS(=O)(=O)c1ccc(C(=O)N2CCN(Cc3ccccc3)CC2)cc1 | nt | i | 0.97 | 107 | 0 | 71 | 3
COC(=O)C1=C(N)Oc2cc(C)n(CC3CCCO3)c(=O)c2C1c1ccccc1 (centres undefined) | -1.2 | i | 1.2 | 106 | -59 | 157 | -10
CCOC(=O)CC1C(=O)NCCN1S(=O)(=O)c1ccc(C)cc1 (centres undefined) | nt | i | 1.1 | 101 | nt | nt | -3
Nc1c(S(=O)(=O)c2cccc(Cl)c2)c2nc3ccccc3nc2n1CCN1CCOCC1 | 0.2 | i | 0.77 | 97 | nt | nt | -1
CCOC(=O)c1ccc(N2C(=O)CC(C3CCCO3)C2=O)cc1 (centres undefined) | -1.4 | i | 1.1 | 98 | -23 | 90 | -12
Cc1ccc(N(CC(=O)NCC2CCCO2)S(C)(=O)=O)cc1Cl (centres undefined) | 0.2 | i | 0.84 | 103 | -55 | 94 | 3
COc1ccc2nc(C)cc(SCC(=O)N/N=C/c3ccc(O)c(O)c3)c2c1 | nt | i | 0.9 | 102 | nt | nt | 0
O=C(CSc1nnc(-c2ccc(F)cc2)c2ccccc12)Nc1ccccc1 | -0.6 | i | 0.81 | 82 | 7 | 125 | -3
CC1CC(C)(C)NCCNC(C)CC(C)(C)NCCN1 (centres undefined) | -0.8 | i | 0.87 | 104 | nt | nt | -3
COC(=O)c1cc2sc(Cl)cc2n1CC(=O)Nc1ccc(OC)c(OC)c1OC | -1.5 | i | 0.91 | 87 | nt | nt | -5
FC(F)(F)c1cccc(NC(=S)NCC(c2cccnc2)N2CCOCC2)c1 (centres undefined) | -1.2 | i | 1 | 108 | nt | nt | 5
O=C(CC(Cc1ccccc1)c1ccco1)NCc1ccco1 (centres undefined) | nt | i | 0.98 | 99 | nt | nt | nt
O=C(CC(c1ccccc1)c1ccccc1)N1CCN(c2ccccn2)CC1 | nt | i | 1.2 | 102 | nt | nt | -9
Cn1c(=O)c2c(nc(CN3CCN(c4ccccc4F)CC3)n2CCCc2ccccc2)n(C)c1=O | -0.8 | i | 0.94 | nt | -128 | 148 | -2
CCC(=O)Nc1ccccc1C(=O)N1CCN(Cc2ccccc2)CC1 | -1.7 | i | 1.1 | 98 | nt | nt | -2
O=C(NCCCN1CCCC1=O)c1cc2c(s1)CCCCC2 | nt | i | 1.1 | 78 | nt | nt | nt
CCC(=O)Nc1cccc(C(=O)/C=C/c2cccs2)c1 | nt | i | 0.63 | 70 | 43 | 87 | 4
COC(=O)c1ccccc1S(=O)(=O)N1Cc2cc([N+](=O)[O-])ccc2Oc2ccccc21 | -1.8 | i | 1.1 | 92 | 0 | 107 | -5
COc1ccc(N(C(=O)Cn2nnc(-c3ccc(Cl)cc3)n2)C(C(=O)NCC2CCCO2)c2ccncc2)cc1 (centres undefined) | nt | i | 1.1 | 99 | -29 | 98 | -4
CCOC(=O)Cc1c(C)nc2c(-c3ccc(Cl)cc3)c[nH]n2c1=O | -0.3 | nt | nt | 83 | 33 | 93 | -5
Cc1ccc(N(CCC(=O)Nc2nnc(C3CC3)s2)S(=O)(=O)c2ccccc2)cc1 | -0.5 | i | 0.88 | 100 | -42 | 112 | -1
CC(C)CC(=O)N1CCN(S(=O)(=O)c2ccccc2)CC1 | -1.4 | i | 0.72 | 97 | -3 | 142 | -5
O=C(CC1C(=O)NCCN1CC1CCCCC1)NCc1ccc(Cl)cc1 (centres undefined) | nt | i | 0.85 | 99 | nt | nt | -5
